Source: PubChem (several laboratories)
LANA-H2A inh – blocks KSHV LANA binding to histone H2A/H2B; Q9QR71; cell-free LANA-H2A/H2B peptide, fluorescence polarization; inhibition, % (concentration not given with the values); hit rate 0.6% among 320,000; AID 2629; in the data active means inhibition mostly above about 10%, no sharp cut-off; inactive means mostly below about 6.7%;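 further: stock transfer was 7.5 nL into about 10 µL; 0% = median of vehicle wells and 100% = median of positive control wells; one replicate is shown; the record names a cut of 25% in any replicate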
Target sequence (Q9QR71 whole entry, looked up): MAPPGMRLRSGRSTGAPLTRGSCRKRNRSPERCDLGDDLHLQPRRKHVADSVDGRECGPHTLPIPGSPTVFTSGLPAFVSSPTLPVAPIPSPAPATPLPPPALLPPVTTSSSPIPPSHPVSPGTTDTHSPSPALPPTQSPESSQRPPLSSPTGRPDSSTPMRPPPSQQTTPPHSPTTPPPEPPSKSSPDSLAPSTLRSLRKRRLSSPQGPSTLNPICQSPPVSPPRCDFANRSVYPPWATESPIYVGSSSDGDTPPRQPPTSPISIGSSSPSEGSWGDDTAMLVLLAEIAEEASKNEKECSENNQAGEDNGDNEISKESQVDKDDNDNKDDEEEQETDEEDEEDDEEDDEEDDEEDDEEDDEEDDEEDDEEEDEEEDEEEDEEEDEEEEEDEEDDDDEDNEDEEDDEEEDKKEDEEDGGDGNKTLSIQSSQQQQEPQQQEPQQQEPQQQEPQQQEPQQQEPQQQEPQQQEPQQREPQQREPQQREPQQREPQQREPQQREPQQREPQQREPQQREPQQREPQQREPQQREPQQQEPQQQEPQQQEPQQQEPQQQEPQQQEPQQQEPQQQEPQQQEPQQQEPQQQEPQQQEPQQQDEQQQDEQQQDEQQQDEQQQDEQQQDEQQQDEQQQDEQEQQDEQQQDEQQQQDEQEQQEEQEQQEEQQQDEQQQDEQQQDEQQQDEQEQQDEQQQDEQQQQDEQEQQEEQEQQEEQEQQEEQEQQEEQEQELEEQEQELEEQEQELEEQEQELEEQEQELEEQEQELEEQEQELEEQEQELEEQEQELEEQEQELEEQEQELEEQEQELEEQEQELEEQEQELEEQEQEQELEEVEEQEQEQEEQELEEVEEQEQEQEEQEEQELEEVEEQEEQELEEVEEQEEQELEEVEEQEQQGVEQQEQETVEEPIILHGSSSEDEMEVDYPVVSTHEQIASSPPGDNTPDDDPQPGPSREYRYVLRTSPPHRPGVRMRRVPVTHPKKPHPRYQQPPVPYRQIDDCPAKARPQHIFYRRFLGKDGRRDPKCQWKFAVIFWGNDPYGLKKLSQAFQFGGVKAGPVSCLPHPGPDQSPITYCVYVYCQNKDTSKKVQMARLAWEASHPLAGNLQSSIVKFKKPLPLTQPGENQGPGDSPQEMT
Calb FLC – C. albicans growth modulation with fluconazole; C. albicans CaCi-2 (fluconazole-resistant clinical isolate) + fluconazole, Alamar Blue growth, 48 h; growth inhibition, % (no concentration beside the values); hit rate 0.57% among 300,000; AID 1979;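 active means most replicates above 75%; inconclusive means exactly half above 75%; inactive means most below 75%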;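 further: all wells also contain fluconazole at 8 µg/ml as a sub-toxic cotreatment; 0% = median of DMSO wells and 100% = median of geldanamycin control wells; wells of about 8 µL received 7.5 nL stock; the first replicate is given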
A1 inh – inhibitors of the anti-apoptotic protein A1, read as caspase activation; MEF A1-2A-BIM cells, Caspase-Glo 3/7 luminescence, 3 h; percent of clofoctol response, vehicle zero; hit rate 0.066% among 330,000; caspase activation, % (concentration not given with the values);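 active means over half of replicate activation scores above 10%, or exactly half above 10 with the replicate mean above 10; inconclusive means replicate mean below 10 yet half the replicates above 10; inactive means over half of replicates below 10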;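 further: wells of about 30 µL received 50 nL stock; many hits fall short of the cut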
Beta cell apopt – blocks beta cell apoptosis; INS-1E cytokine-induced death, ATP luminescence, 48 h; percent of positive-control rescue, neutral wells zero; protection from apoptosis, % (concentration not given with the values); hit rate 0.8% among 300,000;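 active means all replicates at 75% or more, or half of them and the mean; inconclusive means half reach 75% but not the mean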;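 further: 0% = cytokine-treated negative control wells and 100% = positive control rescue; higher means more ATP so stronger rescue from cytokine killing; wells of about 40 µL received 100 nL stock; the first replicate is given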
RanGTP-Impb inh – inhibitors of RanGTP-importin-beta interaction, primary screen, biochemical, FRET, CFP-Ran, YFP-importin-beta, homogeneous; cell-free CFP-Ran/YFP-importin-beta FRET ratio; hit rate 1.1% among 300,000; inhibition, % (test concentration not listed);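 active means most replicates above 15%; inconclusive means exactly half above 15%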;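 further: 0% = DMSO wells and 100% = Ran loaded with GDP instead of GTP; wells of about 40 µL received 100 nL stock; the first replicate is given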
Vif A3G – inhibitors of Vif binding to APOBEC3G peptide, primary screen, biochemical, TR-FRET, GST-Vif 1-94, biotin-A3G peptide, dose response retest (AID 1117319) | TR-FRET GST-Vif / biotin-A3G peptide binding; higher % means a stronger effect; test concentration not given here; strong numbers were not always called active | one-dose inhibition, %; IC50 in µM for titrated hits | hit rate 0.57% among 260,000;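 active means above the screen mean plus three standard deviations and confirmed in dose response; inconclusive means results disagree or hit not tested in dose response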;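 further: Vif residues 1-94 fused to GST binding biotinylated APOBEC3G peptide 110-148; 0% = full assay without inhibitor and 100% = GST in place of GST-Vif; retest series ran down from 100 µM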
T cruzi inh – blocks replication of Trypanosoma cruzi | T. cruzi beta-gal in NIH3T3, luminescence, 90 h | inhibition, % (test concentration not listed) | hit rate 1.4% among 300,000 | AID 1885;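 active means mean inhibition across valid replicates above about 55%, limit read from the data; inconclusive means mean below that limit but half or more replicates reach it; inactive means mean below it, under half of replicates reach it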;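 further: signal also drops with host cell toxicity which is not excluded here; 0% = plate median of DMSO wells and 100% = zero luminescence signal; higher percent means less beta-gal luminescence so fewer parasites; stock transfer was 50 nL into about 50 µL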
AF4-AF9 inh – MLL-AF4/AF9 protein interaction inhibition | hit rate 0.47% among 350,000 | AlphaScreen, biotin-AF4 peptide binding to FLAG-AF9 | inhibition, % at 10 µM | AID 651704;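 active means every replicate reaching a set inhibition limit, whatever the replicate mean, cut at about 25% in these data; inconclusive means mean inhibition reaches that limit but some replicates miss it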;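 further: 0% = plate neutral control median and 100% = total signal loss; the record names both 10 and 1 µM as test concentration; the first replicate is given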
* = called active by the depositor; ? = inconclusive; . = no result given; & = joins results of further samples. Rows are unselected; about 4.3% have a hit in one of these screens.

SMILES | LANA-H2A inh | Calb FLC | A1 inh | Beta cell apopt | RanGTP-Impb inh | Vif A3G | T cruzi inh | AF4-AF9 inh
Cc1ccc2c(c1)c(=O)c(Br)c(C)n2Cc1ccccc1 | -6.4 | -10.2 | -2.0 | 5.2 | -1.0 | 13.5% | 0.0 | .
COc1ccc2[nH]c3c(=O)n(Cc4ccc(C(=O)N5CCC(C(N)=O)CC5)cc4)c(=S)[nH]c3c2c1 | -1.6 | 5.9 | 0.6 | -1.8 | -3.7 | -11.2% | -0.8 | -3.4
Cc1c(CCOC(=O)c2ccc(Cl)cc2Cl)sc[n+]1CC(=O)c1ccc(Br)cc1 | 5.3 | . | 2.5 | 26.4 | . | . | . | 12.9
COc1cccc(-n2c(SCC(=O)NCC3CCCO3)nc3c([nH]c4ccccc43)c2=O)c1 (stereo not drawn) | 2.3 | 1.1 | 0.6 | -9.3 | 1.3 | 6.6% | 1.3 | 1.5
O=C(Oc1c(-c2ccccc2)oc2ccccc2c1=O)c1ccccc1 | -6.8 | 19.1 | -0.1 | 9.3 | -0.8 | -7.1% | 21.3 | .
Cc1ccc(S(=O)(=O)Nc2cc(C(F)(F)F)ccc2N2CCOCC2)c(C)c1 | -2.3 | ? | -0.8 | 28.0 | 5.6 | -8.4% | 41.5 | 1.4
O=C(NC1CCCCC1)c1ccc(CN2CCOCC2)cc1 | 3.2 | . | 0.2 | -1.6 | . | 18.6% | . | .
Cc1cc(Br)ccc1SCC(=O)OC/C(O)=C(\C#N)c1nc2ccccc2[nH]1 | -4.3 | 2.3 | 0.0 | 1.2 | 0.9 | -13.0% | 10.7 | -3.0
CCO[C@@H]1OC(C(=O)NCc2ccccc2)=C[C@H](C(C)(C)C)[C@H]1CCCO | 3.2 | -1.0 | 0.0 | -3.4 | 0.7 | . | -19.9 | -1.7
S=C(Nc1ccc(Cl)cc1)N(CCCN1CCOCC1)Cc1cccs1 | -3.5 | 35.0 | -0.3 | 0.2 | -1.8 | -4.8% | 19.6 | 0.5
Cc1ccc(C(=O)OCC(=O)Nc2cc(F)ccc2F)cc1NC(=O)c1ccco1 | -3.0 | -16.5 | 0.2 | . | 0.6 | 7.2% | 3.6 | .
CCCc1cc(=O)[nH]c(SCC(=O)Nc2ccc(S(=O)(=O)N3CCCC3)cc2)n1 | -5.6 | . | -0.1 | 0.0 | . | -0.9% | . | 8.2
Cc1cccc(NC(=O)CS(=O)(=O)c2cn(CC(=O)N3CCOCC3)c3ccccc23)c1 | 4.6 | -5.6 | 0.1 | -2.5 | 2.8 | 3.5% | -2.7 | 3.1
N#CC(C(=O)NC1CCCCC1)=C1CCCCCC1 | 0.5 | -10.1 | -0.1 | -0.3 | -1.7 | . | 8.9 | 3.1
CC(Oc1ccccc1)C(=O)Nc1ccc(NC(=O)c2ccccc2)cc1 (stereo not drawn) | -0.8 | -0.5 | -0.2 | -2.1 | -0.2 | -3.8% | -26.6 | -3.8
CSc1ccc(/C=N/N2CCN(Cc3ccccc3)CC2)cc1 | -4.5 | -1.1 | -1.3 | -5.3 | -3.0 | -4.1% | -17.9 | 19.5
COCCSc1nc2c(c(=O)[nH]c(=O)n2C)n1Cc1cccc(C)c1 | -2.0 | 1.8 | 1.3 | 7.9 | -3.0 | ? | 15.8 | 5.7
Cc1cc(S(=O)(=O)NCc2ccccc2)ccc1OCC(=O)NCC1CCCO1 (stereo not drawn) | -1.6 | -3.2 | -0.3 | -7.8 | -3.0 | -8.9% | -9.6 | -1.1
COCCN1C=C2C(=O)C(C)(OC(=O)CCC(=O)OC)C(=O)C=C2C=C1C1CC1 (stereo not drawn) | 4.4 | 21.7 | 0.3 | -1.2 | 4.4 | 10.6% | -5.3 | .
Cc1ccccc1-c1nc2ccccc2c(=O)n1/N=C/c1ccccc1[N+](=O)[O-] | 1.5 | 0.9 | 0.6 | -12.5 | 3.7 | 21.5% | 4.1 | .
CCN(C(=O)CCc1ccccc1)C1CCCCC1 | 0.7 | -4.3 | -0.1 | 0.9 | 4.4 | -7.7% | 15.0 | -0.4
COC(=O)c1c(C)[nH]c(O)c1C=Nc1ccc(C#N)cc1 | 0.2 | -2.6 | 1.1 | 2.6 | -4.9 | 22.7% | 1.1 | 4.6
COC(=O)c1ccc(CNC(=O)C(NC(=O)c2ccco2)C(C)C)cc1 (stereo not drawn) | 0.0 | -4.2 | 2.4 | -7.1 | 1.9 | . | -14.6 | 1.8
CCCc1nnc(SCC(=O)N2CCOCC2)n1Cc1ccco1 | 2.1 | 6.8 | 0.2 | -0.3 | -1.4 | -1.8% | -12.9 | .
C=CCn1c(SCC(=O)Nc2ccc3c(c2)OCO3)nnc1-c1ccccc1OC | 5.6 | -13.2 | -0.1 | 6.5 | 12.5 | 4.5% | 13.9 | .
COc1ccc(CCc2nnc(CCC(=O)NCc3cnn(-c4ccccc4C)c3)o2)cc1 | 16.6 | 4.1 | -0.6 | -2.6 | 0.6 | . | 8.0 | 1.9
CCN1CCN(C(=O)C(=O)c2cn(CC(=O)N(CC)CC)c3ccccc23)CC1 | -1.6 | -2.9 | 0.9 | -7.0 | 5.0 | . | 5.0 | 0.4
CC1CCN(C(=O)C2CCN(S(=O)(=O)c3ccc4c(c3)CC(C)N4C(=O)C3CC3)CC2)CC1 (stereo not drawn) | -0.7 | 1.6 | -0.6 | 5.0 | -2.0 | . | 21.9 | 2.0
Cc1ccccc1COC(=O)CCCC1=NS(=O)(=O)c2ccccc2N1 | 3.1 | -5.5 | 0.6 | -4.4 | 0.1 | . | -1.0 | 1.1
COc1cccc(CN2CCNC(=O)C2CC(=O)NCC(C)(C)N2CCOCC2)c1OC (stereo not drawn) | -1.7 | -5.5 | 1.0 | -8.9 | ? | -3.3% | -10.6 | -0.1
NC(=O)C1CCN(C(=O)c2ccc(NS(=O)(=O)c3ccc(F)cc3)cc2)CC1 | -5.9 | . | 0.6 | 1.9 | . | 0.8% | . | -0.5
CCOC(=O)C(C)n1ncn2cccc2c1=O (stereo not drawn) | -3.3 | -8.5 | -0.9 | -0.5 | -2.0 | 27.7% | -16.5 | .
COCCn1cnnc1SCC(=O)Nc1cccc(S(=O)(=O)N2CCCCCC2)c1 | -0.3 | 3.6 | -0.1 | -1.1 | ? | . | 7.9 | 0.5
Cc1ccc(C(=O)C2Oc3ccccc3C3CC(c4ccc(C)cc4)=NN23)cc1 (stereo not drawn) | -2.8 | 1.8 | -0.4 | 13.0 | 0.9 | . | 20.8 | 6.9
CCOC(=O)c1sc(-c2ccc(F)cc2)cc1NC(=O)Nc1ccccc1OC | 0.2 | -5.8 | -0.1 | -5.0 | 1.4 | 9.4% | 9.4 | .
Cc1ccc(C(=O)C[n+]2ccc(Cc3ccccc3)cc2)cc1 | 4.6 | 6.7 | -0.7 | 60.5 | -1.4 | 2.2% | 12.2 | 0.4
Cc1ccccc1N1C(=O)C(Cl)=C(N2CCCCCC2)C1=O | 3.0 | -7.5 | 0.5 | -3.0 | 0.5 | 4.9% | 5.6 | .
O=C(CN1C(=O)CC(c2ccco2)Sc2ccccc21)NCC1CCCO1 (stereo not drawn) | -3.6 | -3.4 | 0.9 | 3.3 | 1.9 | 11.2% | 4.1 | .
CCOC(=O)NC(CC(=O)O)c1ccc(OC)cc1 (stereo not drawn) | 1.6 | 0.9 | -0.3 | -7.1 | -0.6 | 22.4% | -4.1 | .
CCCc1cnc(N2CCN(C(=O)c3ccccc3)CC2)nc1 | 1.2 | -10.4 | -1.0 | -0.5 | 0.6 | -6.0% | -9.0 | -3.1
COc1c(Cl)cc(Cl)cc1CNCc1ccccc1 | 0.2 | -46.7 | 0.7 | -2.3 | 1.9 | 17.8% | 8.5 | -17.7
CC(C)CCN1C(=O)c2ccc(C(=O)NCc3ccccn3)cc2C1=O | 3.8 | 0.1 | -0.3 | -1.0 | -2.6 | 2.9% | -4.1 | 0.8
COc1cccc(CN(C)C(=O)CSc2nc3ccccc3[nH]2)c1OC | 1.7 | -8.4 | -0.3 | -1.0 | 3.8 | . | 2.9 | -0.3
CCC1CCC(c2nnc(-c3ccc(Br)cc3)o2)CC1 (stereo not drawn) | 0.2 | 3.6 | 0.3 | . | 0.0 | . | -15.0 | -2.9
CC(C)(C)OC(=O)N1CCC[C@H]1C(=O)Nc1ccc(Br)cc1 | -1.6 | 0.5 | 0.0 | 6.8 | 2.3 | 6.0% | 7.1 | -0.1
C[n+]1cccc(/C=N/Nc2nc(Cl)c(C#N)c(Cl)c2Cl)c1 | -2.1 | 12.5 | 0.9 | -14.1 | ? | 17.6% | -7.3 | .
COc1ccc(/C=C/C(=O)N[C@H](C(=O)O)C(C)C)cc1 | 5.4 | 4.5 | -0.4 | 0.5 | 2.1 | -1.0% | -12.8 | 0.2
Cc1ccc(SCCC(=O)OCC(=O)Nc2ccc(S(N)(=O)=O)cc2)cc1 | 6.6 | 9.2 | -1.4 | -12.9 | ? | . | -19.1 | -3.5
CC(NC(=O)Nc1ccccc1Cl)c1ccc2c(c1)OCO2 (stereo not drawn) | 0.8 | 3.4 | 0.2 | 0.9 | 0.1 | -5.0% | 10.2 | -1.1
CN(CCNC(=O)CCNC(=O)Cn1ccc2ccccc2c1=O)Cc1ccccc1 | 1.1 | -0.5 | -0.2 | -0.8 | -0.3 | -4.5% | 7.4 | .
Cc1ccc(C)c(N2N=C(C(=O)Nc3ccccc3N3CCCC3)CCC2=O)c1 | -0.4 | -1.7 | 0.0 | . | 8.0 | . | 14.1 | 6.8
CC(=O)N=c1ncn(CC(COC(C)=O)OC(C)=O)c2nc[nH]c12 (stereo not drawn) | 1.9 | -1.8 | -0.2 | 2.1 | -2.3 | -1.6% | -4.4 | .
O=C(Nc1cccc(F)c1)NC1CCCCC1 | -2.0 | -11.1 | -1.4 | -1.3 | 7.4 | 3.5% | 2.9 | .
O=C(O)CSc1nc(C(F)(F)F)cc(=O)n1-c1ccccc1 | -0.1 | -6.2 | 0.8 | -5.9 | -1.0 | 4.9% | -0.7 | .
CCOC(=O)N1CCN(C(=O)CSCC(=O)Nc2nc(-c3cccs3)cs2)CC1 | -3.4 | 1.3 | 0.0 | -9.1 | 1.4 | -5.4%&7.4% | -3.2 | .
Cc1nn(Cc2nnc(SCC(=O)Nc3cccc(C(F)(F)F)c3)n2C)c(C)c1[N+](=O)[O-] | -4.0 | 4.5 | 0.1 | -3.7 | 4.3 | -0.7% | 23.9 | .
NC(=O)NNC1=Nc2cccc3cccc1c23 | -1.1 | 43.2 | 2.1 | 3.7 | -5.5 | 3.9% | 1.0 | 3.4
O=C(NCC(c1ccco1)N1CCCC1)c1sc2cc(F)ccc2c1Cl (stereo not drawn) | -2.4 | . | 0.1 | 3.2 | . | -3.1% | . | 0.4
